YopH inh = YopH (Yersinia) phosphatase inhibition; fluorescence Ex485/Em525; inhibition, %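 (about 10 µM by stock and volumes)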; 140,000 compounds, 0.16% hits; AID 898;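 active = inhibition of 50% or more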;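 note: controls were vehicle for no effect and minimum signal wells for full effect; inactives centre near -20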
RecA intein inh = inhibitors of M. tuberculosis RecA intein splicing; inhibition, %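 (about 9 µM by stock and volumes)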; cell-free RecA intein splicing, fluorescence; 290,000 compounds, 0.75% hits; P9WHJ3; in the data active = inhibition above about 30%; inconclusive = no clear call, values can overlap the other calls;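 note: 0% = vehicle wells and 100% = reference inhibitor control wells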
Target sequence (P9WHJ3 whole entry, looked up): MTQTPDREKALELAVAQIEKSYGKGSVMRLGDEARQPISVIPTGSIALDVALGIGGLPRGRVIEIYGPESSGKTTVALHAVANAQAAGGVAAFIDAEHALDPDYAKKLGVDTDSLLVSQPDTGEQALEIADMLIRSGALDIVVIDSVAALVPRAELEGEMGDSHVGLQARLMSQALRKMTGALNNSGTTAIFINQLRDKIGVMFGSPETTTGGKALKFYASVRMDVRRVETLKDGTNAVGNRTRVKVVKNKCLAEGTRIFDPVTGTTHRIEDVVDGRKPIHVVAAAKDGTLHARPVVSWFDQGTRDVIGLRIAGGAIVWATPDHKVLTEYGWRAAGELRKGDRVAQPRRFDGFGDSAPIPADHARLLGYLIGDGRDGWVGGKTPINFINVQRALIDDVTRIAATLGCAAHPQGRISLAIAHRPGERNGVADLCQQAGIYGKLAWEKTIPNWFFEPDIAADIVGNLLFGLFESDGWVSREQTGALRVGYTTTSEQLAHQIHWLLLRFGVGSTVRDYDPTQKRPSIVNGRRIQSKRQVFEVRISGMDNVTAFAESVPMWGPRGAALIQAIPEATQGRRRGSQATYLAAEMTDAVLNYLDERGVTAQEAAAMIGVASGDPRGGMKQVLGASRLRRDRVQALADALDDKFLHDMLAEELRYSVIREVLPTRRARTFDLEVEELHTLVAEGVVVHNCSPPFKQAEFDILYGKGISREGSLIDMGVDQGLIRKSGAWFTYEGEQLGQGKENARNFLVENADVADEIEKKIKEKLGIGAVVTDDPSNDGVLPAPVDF
Arbovirus inh = arbovirus infection inhibition. arbovirus infection cell-based antiviral screen. inhibition, % at 10 µM. 200,000 compounds, 0.37% hits. AID 1251;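 active = inhibition from about 30%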;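 note: bluetongue infection of BSR cells; cell survival read as ATP light after 72 h; 0% = infected wells without compound and 100% = uninfected wells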
Mtb growth = M. tuberculosis H37Rv growth inhibitors, H37Rv strain (AID 1626); M. tuberculosis H37Rv growth inhibition; higher % means a stronger effect; one-dose inhibition, % at 10 µM; IC50 in µM for titrated hits; 220,000 compounds, 0.95% hits;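 active = confirmed in a dose series; inconclusive = inhibition above 80% but not taken into the dose series; inactive = below 80% or under 30% at every dose of the series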;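 note: bacteria incubated seven days before Alamar blue readout; 0% = bacteria only wells and 100% = bacteria with antibiotic wells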
Mtb bLac sens = beta-lactam sensitization of Mtb H37Rv; inhibition, % at 25 µM; 330,000 compounds, 0.27% hits; M. tuberculosis H37Rv growth with meropenem, percent inhibition; hits of this screen are not shown here;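 active = about 74% or more and at least 40 points above the plate without the antibiotic, then above 30% in a dose series; inconclusive = first-round hits that could not be retested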;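 note: growth measured after seven days incubation then overnight dye step; 0% = bacteria only wells and 100% = bacteria with antibiotic; twin plates without the antibiotic show which effects depend on it; some results filed as inactive read as strong as hits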
Arbovirus inh repeat = also measured in Arbovirus inh; calls as there; inhibition, %; measured here: 10K subset replicate screen; many hits read low in the repeat;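 first of two repeat runs on a subset; 0% = infected and 100% = uninfected wells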
An asterisk follows results filed as active; ? = inconclusive; nt = no result given. This is a subset. The share of hits here may be higher or lower than overall.

SMILES	YopH inh	RecA intein inh	Arbovirus inh	Mtb growth	Mtb bLac sens	others
C/C(=N\NC(=O)c1ccc(O)cc1)c1ccc2c(c1)Nc1ccccc1S2	-9	0.2	-33	15%	95
O=C(CN1C(=O)NC2(CCCC2)C1=O)Nc1ccc(Cl)cc1F	nt	0.4	nt	nt	-5
CCOc1ccc(-c2noc(CCCC(=O)NC3CCCC3)n2)cc1OC	nt	-2.2	nt	nt	-4
COc1cc2c(cc1NC(=O)COCC(=O)O)oc1ccccc12	nt	0.1	nt	nt	3
CCOC(=O)C1CCCCN1Cc1cccc(C(F)(F)F)c1 (centres undefined)	-14	-0.6	3	0%	5
COc1ccc(N2CCc3c(C)nc4c(OC)cc(OC)cc4c32)c(OC)c1	-23	-4.0	5	nt	8
O=C(/C=C/c1cccs1)c1cc(F)ccc1OC(=O)N1CCOCC1	7	1.1	nt	8%	18
Cc1ccccc1-n1nc2c(c1NC(=O)c1cc3ccccc3oc1=O)CS(=O)C2 (centres undefined)	-3	-1.1	-1	-2%	12
COCCNC(=O)c1cccc(OC2CCN(Cc3ccc(OC(F)F)cc3)CC2)c1	nt	0.6	nt	nt	-7
COc1ccc(CNC(=O)C(OC(=O)c2nsc(Cl)c2Cl)C(C)C)cc1 (centres undefined)	nt	-0.2	-3	8%	-3
CC(=O)NC(C)C(=O)OCC(=O)c1ccc(-c2ccccc2)cc1 (centres undefined)	nt	0.9	12	1%	-4
Cc1csc(NC(=O)c2c(O)c3c(n(CC(C)C)c2=O)CCCC3)n1	5	-2.5	55*	34%	96
Cc1ccc(-c2cc(Cc3ccncc3)c(=O)[nH]n2)cc1	nt	-0.7	nt	-4%	-14
Cc1cccc(-c2csc(N)c2C(=O)OC(C)C)c1	6	5.4	-15	-3%	7
CN1C(=O)/C(=C\c2ccc(N(C)C)cc2)OC1=S	nt	-0.7	nt	nt	8
CCO[C@H]1OC(C(=O)N2CCN(C)CC2)=C[C@@H](c2coc3ccccc3c2=O)[C@@H]1CCCO	nt	-2.4	3	-3%	-2
CSc1ncccc1C(=O)NCCc1ccc(S(N)(=O)=O)cc1	nt	4.0	nt	nt	2
Cc1nn(-c2ccccc2)c(C)c1/C=N/NC(=O)c1cc(O)cc(O)c1	nt	-3.4	nt	nt	-15
CCN(CC)S(=O)(=O)c1cccc(C(=O)NC(C(=O)Nc2nnc(C)s2)C(C)C)c1 (centres undefined)	-6	3.5	1	-1%	-5
Cc1cc(N2CCOCC2)nc(SCc2ccc(Cl)cc2Cl)n1	-33	16	1	-1%	16
Cc1ccc(/C=N/N(C)C2=NS(=O)(=O)c3ccccc32)cc1	nt	-1.8	nt	nt	-3
COc1cc2c(cc1OC)C(C(C)C)=NC(C)(C)C2	0	nt	3	1%	-18
Cc1nc(/N=C(\N)NC(=O)NC2CCCCC2)nc2ccccc12	nt	7.0	nt	?	99
CNC(=O)c1cc(C(=O)c2ccc(F)cc2Cl)c[nH]1	nt	-1.3	nt	nt	9
Fc1cccc(Cc2noc(CN3CCN(C4CCc5ccccc5C4)CC3)n2)c1 (centres undefined)	nt	1.8	-6	9%	7

Next structures:
SMILES	YopH inh	RecA intein inh	Arbovirus inh	Mtb growth	Mtb bLac sens	others
O=S(=O)(NCC1CCCO1)c1cc(Br)c(Br)s1 (centres undefined)	-47	-0.1	10	2%	1
Cc1nc(Nc2ccc(F)cc2)[nH]c(=O)c1CCC(C)C	-24	7.8	-13	-5%	-4
COC(=O)c1sccc1N(C)S(C)(=O)=O	nt	-1.0	3	4%	7
Cc1ccc(S(=O)(=O)N2CCC(C(=O)N/N=C/c3ccccc3[N+](=O)[O-])CC2)cc1	-31	2.2	0	-4%	-2
O=C(CCn1c2c(c3ccccc31)CCCC2)NNC(=O)c1ccccc1C(=O)O	nt	1.7	nt	-10%	0
CCOc1c(O)ccc(/C=C2\SC(=S)NC2=O)c1[N+](=O)[O-]	nt	13	8	8%	-12
O=C(NCC(c1ccco1)N1CCc2ccccc2C1)c1ccccc1Cl (centres undefined)	nt	5.0	nt	nt	3
Cc1ccc(CN2CCCC(C(=O)c3sccc3C)C2)o1 (centres undefined)	nt	-4.1	3	0%	-6
CCCCN(Cc1ccccc1)C(=O)C1CCCN(S(=O)(=O)c2cnc[nH]2)C1 (centres undefined)	-38	0.2	18	-10%	0
COCCCNc1oc(COc2ccc(Cl)cc2Cl)nc1C#N	-60	-1.7	2	-1%	-7
CCOc1ccc(N2C(=O)CN=C2Nc2ccccc2Cl)cc1	1	0.8	1	-10%	-7
CCN(CC)C(CNC(=O)c1cc(=O)[nH]c2ccccc12)c1ccccc1Cl (centres undefined)	nt	0.1	nt	nt	3
CN(C)/C=C1\C(=O)N(c2ccc(Oc3ccccc3)cc2)CS1=O (centres undefined)	-27	-1.2	1	-2%	6
CCOc1ccc(NC(=O)CN(C)C(=O)Cc2c(C)nc3ccccc3c2C)cc1OCC	nt	0.6	nt	nt	-4
COc1ccc(CCNC2=C(Cl)C(=O)N(Cc3ccccc3)C2=O)cc1OC	nt	-4.8	-6	7%	5
O=C(N/N=C/c1cccs1)c1ccc2c(c1)OCO2	-24	0.8	6	nt	26
Cc1cccc(OCCCn2c(CCNC(=O)C(C)C)nc3ccccc32)c1	-42	1.2	30	2%	-12
COc1cccc(OCc2cc(C(=O)N(C)CCC3CCCCO3)no2)c1 (centres undefined)	nt	0.3	nt	nt	4
O=C(CCN1C(=O)c2cccc3cccc(c23)C1=O)NCc1ccco1	nt	-1.8	10	1%	6
CC1CCN(C(=O)c2cc3ccccc3o2)CC1	10	-0.5	-4	-1%	2
Cc1[nH]c2ccccc2c1/C=N/NC(=O)c1cc(-c2ccncc2)nc2ccccc12	nt	-4.9	nt	nt	-5
COCCNC(=O)CCc1nc2cccnc2n1Cc1ccc(OC)cc1	nt	-1.5	nt	nt	2
NC(=S)N/N=C/c1coc2cc(Br)ccc2c1=O	nt	-0.1	nt	-7%	98
Cc1nnc(SCC(=O)NC(=O)Nc2ccc3c(c2)OCCO3)n1N	nt	-0.2	nt	1%	-5
COc1ccc(/C=N/NC(=O)c2[nH]c3ccc(Br)cc3c2-c2ccccc2)cc1	-4	-15	-1	19%	8

Among those listed so far, these contain bromine.
SMILES	YopH inh	RecA intein inh	Arbovirus inh	Mtb growth	Mtb bLac sens	others
O=S(=O)(NCC1CCCO1)c1cc(Br)c(Br)s1 (centres undefined)	-47	-0.1	10	2%	1
NC(=S)N/N=C/c1coc2cc(Br)ccc2c1=O	nt	-0.1	nt	-7%	98
COc1ccc(/C=N/NC(=O)c2[nH]c3ccc(Br)cc3c2-c2ccccc2)cc1	-4	-15	-1	19%	8

The main list resumes with the 3 entries that preceded the break.
SMILES	YopH inh	RecA intein inh	Arbovirus inh	Mtb growth	Mtb bLac sens	others
NC(=S)N/N=C/c1coc2cc(Br)ccc2c1=O	nt	-0.1	nt	-7%	98
Cc1nnc(SCC(=O)NC(=O)Nc2ccc3c(c2)OCCO3)n1N	nt	-0.2	nt	1%	-5
COc1ccc(/C=N/NC(=O)c2[nH]c3ccc(Br)cc3c2-c2ccccc2)cc1	-4	-15	-1	19%	8
Cn1c(=O)[nH]c(=O)c2c1nc(N1CCOCC1)n2CC(O)COc1ccccc1 (centres undefined)	-9	-0.4	-3	2%	-18
Cn1c(N/N=C/c2c[nH]c3ccccc23)nc2ccccc21	-37	-3.7	-34	-1%	66
O=C(CC(c1ccccc1)c1cc(Cl)ccc1O)NCCN1CCOCC1 (centres undefined)	nt	-5.6	nt	37%	0
COc1cccc(CN2CCNC(=O)C2CC(=O)N2CCOc3ccccc3C2)c1OC (centres undefined)	nt	0.4	3	-26%	1
Cc1ccsc1/C=N/NC(=O)c1sccc1C	-37	-2.1	-3	4%	-1
CCn1c(O)c(C#N)c(C)cc1=O	nt	2.0	nt	-10%	7
COc1ccc(-c2cc3nc[nH]c(=O)c3s2)cc1	-14	0.9	1	35%	69
CCOc1ccc(NC(=O)c2ccc(CSc3nnnn3C)cc2)cc1	-18	1.4	-3	78%	71
COc1c2c(cc3oc(C)cc(=O)c13)OC(C(C)(C)OC1OC(CO)C(O)C(O)C1O)C2 (centres undefined)	-3	-2.8	1	-12%	-13
CCn1c(C)nc2cc(S(=O)(=O)C(F)(F)C(F)C(F)(F)F)ccc21 (centres undefined)	-30	-2.9	-1	nt	-7
O=C(COC(=O)/C=C/c1ccco1)NCc1ccco1	nt	nt	3	2%	6
COc1ccc(/C=N/NC(=O)CCN2CCCCC2c2cccnc2)cc1Cn1cc([N+](=O)[O-])cn1 (centres undefined)	nt	1.0	nt	-14%	-1
CCC(=O)Nc1ccc(NC(=S)Nc2ccccc2)cc1	-17	2.4	-8	3%	-6
O=C(/C=C/c1ccc(Cl)cc1)NCCCN1CCOCC1	nt	-0.8	nt	nt	6
CC1(C)C(=O)NCCN1C(=O)CC1C(=O)NCCN1CC(c1ccccc1)c1ccccc1 (centres undefined)	nt	1.4	4	-2%	-3
N#CC1=C(N)OC2=C(C(=O)CCC2)[C@]12C(=O)N(CC(N)=O)c1ccccc12	-50	0.4	-7	-3%	0
C=C1CCC(C)C(C)(CCC2=CCOC2=O)C/C=C\C=C/1C(=O)O (centres undefined)	nt	0.3	nt	-7%	4
NC(=O)C1CCCN(C(=O)Nc2cccc3ccccc23)C1 (centres undefined)	-90	nt	-4	13%	2
CCOC(=O)N1CCN(C(=O)CSCc2ccc(C)cc2)CC1	-27	-2.7	9	0%	1
CN(C)/C=C/C(=O)c1ccc(-n2cccc2)cc1	nt	1.2	-5	-7%	-1
CCCN(CC1CCCO1)C(=O)c1cc(COc2cccc(OC)c2)on1 (centres undefined)	nt	0.7	nt	nt	-4
CSc1nc(-c2ccccc2)nn1S(=O)(=O)c1ccccc1	-7	3.0	5	3%	-10
Cc1ccc2c(c1)C(=NC1CCCCC1)c1cc3ccccc3nc1-2	-16	-2.3	-32	1%	7
O=C(CCSc1nc2cc(Cl)ccc2o1)N1CCOCC1	-49	-1.9	6	40%	92
CCC(C)Nc1nc(-c2ccccn2)nc2ccccc12 (centres undefined)	nt	1.8	nt	nt	76

Other records follow.
SMILES	YopH inh	RecA intein inh	Arbovirus inh	Mtb growth	Mtb bLac sens	others
O=C(CSc1ncn(-c2ccccc2)n1)Nc1ccc2c(c1)OCO2	-33	0.4	-12	0%	48
CSc1scc2c1-c1nc(SCC(=O)C(C)(C)C)ncc1CC2	nt	nt	nt	0%	-1
Cc1c(Cl)c(-c2n[nH]c(=S)n2Cc2ccco2)nn1C	-24	2.7	3	-6%	-1
CCOC(=O)c1sc2nccc(N(C)C)c2c1N=CNOC	-9	0.0	2	8%	15
COc1ccccc1C(=O)N/N=C(\C)CC(=O)Nc1ccc2c(c1)OCCO2	nt	-0.3	nt	nt	0
CC(C)N(CCNC(=O)COc1ccc2oc3c(c2c1)CCCC3)C(C)C	nt	0.2	nt	nt	8
CN1C(=O)/C(=C/c2cc(N=Nc3ccccc3)ccc2O)SC1=S	-35	3.6	-27	4%	13
CCN(CC(=O)NCc1ccc(F)cc1)C(=O)c1ccc(C)o1	nt	2.1	nt	nt	1
Cc1ccc(NC(=O)CCCc2ccccc2)nc1	nt	0.2	-2	-6%	-16
COCCCN1C(=O)c2ccc(C(=O)Nc3ccccc3OC)cc2C1=O	-23	-3.0	5	-3%	1
O=C(Cc1cccc2ccccc12)NCCc1ccccc1	nt	-0.8	nt	nt	0
O=c1cc(/C=C/c2ccccc2)oc2c1ccc1ccccc12	-6	1.0	-35	?	-1
C/C(=N\NC(=O)c1ccoc1C)c1cccc2ccccc12	nt	1.4	nt	nt	0
COC(=O)[C@H](CCSC)NC(=O)Nc1cccc(Br)c1	nt	-1.4	nt	-3%	-14
CCNc1nc(NCC)n2c(SCC(=O)Nc3cccc(F)c3)nnc2n1	nt	2.7	nt	nt	4
COCCNC(=O)c1ccc2c(=O)n(Cc3ccco3)c(SCC(=O)Nc3ccc(OC)cc3OC)nc2c1	nt	-0.5	nt	nt	6
COc1cc(OC)c(OC)cc1/C=N/NC(=S)NCCN1CCOCC1	nt	-2.5	1	-1%	-4
CCN(CC)CCN1C(=O)/C(=C\c2ccc(Cl)c([N+](=O)[O-])c2)SC1=Nc1ccc(OC)cc1	nt	11	nt	nt	-7
Cn1c(=O)c(=O)n(C)c2cc(S(=O)(=O)CCC(=O)N3CCOCC3)ccc21	-24	-1.2	2	2%	2	Arbovirus inh repeat=1
COc1cccc(-c2nnc(NC(=O)C(C)C)o2)c1	-49	-1.0	0	59%	41
N#CCCN(Cc1cccnc1)S(=O)(=O)c1ccc(S(=O)(=O)N2CCCCCC2)cc1	-55	3.7	2	-9%	-1

2 compounds drawn at random from those above, as already listed:
SMILES	YopH inh	RecA intein inh	Arbovirus inh	Mtb growth	Mtb bLac sens	others
CCOC(=O)C1CCCCN1Cc1cccc(C(F)(F)F)c1 (centres undefined)	-14	-0.6	3	0%	5
NC(=O)C1CCCN(C(=O)Nc2cccc3ccccc23)C1 (centres undefined)	-90	nt	-4	13%	2

Source: PubChem (several laboratories)
